AF4-AF9 inh = MLL-AF4/AF9 protein interaction inhibition | AlphaScreen, biotin-AF4 peptide binding to FLAG-AF9 | 0.47% of 350,000 active | inhibition, % at 10 µM | P42568;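 active means every replicate reaching a set inhibition limit, whatever the replicate mean, cut at about 25% in these data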;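 further: 0% = plate neutral control median and 100% = total signal loss; the record names both 10 and 1 µM as test concentration; the first replicate is given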
Target sequence (P42568 whole entry, looked up): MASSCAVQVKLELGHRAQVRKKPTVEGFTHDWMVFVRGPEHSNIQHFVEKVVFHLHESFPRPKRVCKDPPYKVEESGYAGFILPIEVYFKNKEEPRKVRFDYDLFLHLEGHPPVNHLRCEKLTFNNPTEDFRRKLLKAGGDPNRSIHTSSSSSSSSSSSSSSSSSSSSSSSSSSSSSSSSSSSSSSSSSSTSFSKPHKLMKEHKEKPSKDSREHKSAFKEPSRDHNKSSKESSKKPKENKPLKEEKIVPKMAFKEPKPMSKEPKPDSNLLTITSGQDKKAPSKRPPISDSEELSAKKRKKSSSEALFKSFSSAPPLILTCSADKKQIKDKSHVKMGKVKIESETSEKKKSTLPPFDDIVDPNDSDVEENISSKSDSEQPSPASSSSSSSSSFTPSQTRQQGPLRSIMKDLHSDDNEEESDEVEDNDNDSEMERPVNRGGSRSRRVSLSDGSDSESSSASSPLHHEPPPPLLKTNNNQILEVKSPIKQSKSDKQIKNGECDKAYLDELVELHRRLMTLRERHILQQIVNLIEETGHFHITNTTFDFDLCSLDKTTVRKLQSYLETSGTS
FGF22 binding = binders of recombinant human FGF22 by thermal shift; Q9HCT0; 1.5% of 340,000 active; SYPRO orange fluorescence; percent of sucrose octasulfate shift, DMSO zero; calls only at 9.99 µM;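 active means melting point raised past a set limit in the mean and every replicate; three in four hits are not shown here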
Target sequence (Q9HCT0 whole entry, looked up): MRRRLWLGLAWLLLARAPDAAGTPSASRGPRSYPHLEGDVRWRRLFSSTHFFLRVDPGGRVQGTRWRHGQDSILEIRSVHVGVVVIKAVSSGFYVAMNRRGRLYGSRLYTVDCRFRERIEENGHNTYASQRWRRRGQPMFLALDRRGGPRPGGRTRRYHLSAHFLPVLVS
Starred values were filed as active, the others as inactive; i = inactive. These rows are one share of the data. The share of hits here may be higher or lower than overall.

Each structure is followed by: AF4-AF9 inh	FGF22 binding
O=C(C[C@@H]1C[C@H]2c3cc(NC(=O)c4ccc5c(c4)OCO5)ccc3O[C@H]2[C@H](CO)O1)NC1CCCC1
 : 1.2	i
COc1ccccc1CNC(=O)C[C@H]1C[C@H]2c3cc(NC(=O)c4cccnc4)ccc3O[C@H]2[C@@H](CO)O1
 : -0.2	i
COCC(=O)Nc1ccc2c(c1)[C@@H]1C[C@@H](CC(=O)N[C@H](C)c3ccccc3)O[C@@H](CO)[C@@H]1O2
 : 2.5	i
Cc1noc(C)c1NC(=O)Nc1ccc2c(c1)C(=O)N([C@@H](C)CO)C[C@@H](C)[C@@H](CN(C)S(=O)(=O)c1c(C)noc1C)OCCCC[C@@H](C)O2
 : -6.2	i
C[C@@H]1CN([C@H](C)CO)C(=O)c2cc(/C=C/c3ccccc3)cnc2O[C@@H]1CN(C)C(=O)C1CCCCC1
 : 3.8	i
C[C@@H]1CCCCO[C@H](CN(C)S(=O)(=O)c2ccc(Cl)cc2)[C@@H](C)CN([C@H](C)CO)C(=O)c2cc(NC(=O)c3ccncc3)ccc2O1
 : 1.7	i
CN(C)C(=O)c1cccc(-c2ccc3c(c2)[C@@H]2[C@@H](CCN2C(=O)C2CCOCC2)[C@H](CO)N3)c1
 : 1.3	i
O=C(Cc1ccccn1)N[C@@H]1CC[C@H](CCn2cc(-c3cccnc3)nn2)O[C@@H]1CO
 : -3.7	i
CO[C@@H]1CN(C)C(=O)c2cc(NC(=O)C3CCC3)ccc2OC[C@H](C)N(C(=O)CN(C)C)C[C@@H]1C
 : -1.2	i
CN(C)C(=O)[C@@H]1[C@@H](CO)[C@@H]2Cn3c(ccc(C4=CCCC4)c3=O)[C@@H]2N1C(=O)c1ccccc1F
 : -1.3	i

Fetched one by one from the entries so far:
Each structure is followed by: AF4-AF9 inh	FGF22 binding
COc1ccccc1CNC(=O)C[C@H]1C[C@H]2c3cc(NC(=O)c4cccnc4)ccc3O[C@H]2[C@@H](CO)O1
 : -0.2	i
O=C(Cc1ccccn1)N[C@@H]1CC[C@H](CCn2cc(-c3cccnc3)nn2)O[C@@H]1CO
 : -3.7	i
O=C(C[C@@H]1C[C@H]2c3cc(NC(=O)c4ccc5c(c4)OCO5)ccc3O[C@H]2[C@H](CO)O1)NC1CCCC1
 : 1.2	i
CO[C@@H]1CN(C)C(=O)c2cc(NC(=O)C3CCC3)ccc2OC[C@H](C)N(C(=O)CN(C)C)C[C@@H]1C
 : -1.2	i
CN(C)C(=O)[C@@H]1[C@@H](CO)[C@@H]2Cn3c(ccc(C4=CCCC4)c3=O)[C@@H]2N1C(=O)c1ccccc1F
 : -1.3	i
CN(C)C(=O)c1cccc(-c2ccc3c(c2)[C@@H]2[C@@H](CCN2C(=O)C2CCOCC2)[C@H](CO)N3)c1
 : 1.3	i

More results follow:
Each structure is followed by: AF4-AF9 inh	FGF22 binding
C[C@H]1CN([C@@H](C)CO)C(=O)c2cccc(NC(=O)Nc3ccc4c(c3)OCO4)c2O[C@@H]1CN(C)C(=O)Nc1cccc2ccccc12
 : 0.4	i
O=C(C[C@H]1C=C[C@H](NS(=O)(=O)c2cccc(F)c2)[C@H](CO)O1)N1CCCCC1
 : -1.8	i
C[C@@H]1CN([C@H](C)CO)C(=O)c2cc(/C=C/c3ccccc3)cnc2O[C@H]1CN(C)S(C)(=O)=O
 : 3.6	i
O=C(C[C@@H]1C[C@H]2c3cc(NS(=O)(=O)c4ccc(F)cc4)ccc3O[C@H]2[C@H](CO)O1)NCc1ccccc1F
 : -0.4	i
COc1cccc(NC(=O)N2CC(=O)N3[C@H](CO)[C@H](c4ccc(C#CCC5CCCC5)cc4)[C@@H]3C2)c1
 : 1.4	i
COCC(=O)N1CC2(C1)[C@@H](c1ccccc1)[C@H](CO)N2C(=O)c1cccnc1
 : -3.4	i
Cc1noc(C)c1S(=O)(=O)Nc1ccc2c(c1)CC(=O)N([C@H](C)CO)C[C@@H](C)[C@H](CN(C)C(=O)Nc1cccc3ccccc13)O2
 : 1.6	i
C[C@@H]1CN([C@H](C)CO)C(=O)c2cc(NC(=O)CCN3CCOCC3)ccc2O[C@H]1CN(C)Cc1ccc(C(F)(F)F)cc1
 : 1.0	i
C[C@H]1CN([C@@H](C)CO)C(=O)c2cc(C#CCc3ccccc3)cnc2O[C@@H]1CN(C)Cc1cccnc1
 : 1.0	i
C[C@@H]1CN([C@H](C)CO)C(=O)c2cc(NS(=O)(=O)c3cn(C)cn3)ccc2O[C@@H](C)CCCCO[C@@H]1CN(C)C(=O)Cc1ccccc1
 : -1.7	i

Next part.
Each structure is followed by: AF4-AF9 inh	FGF22 binding
C[C@H](CO)N1C[C@H](C)[C@@H](CN(C)CC2CC2)OCCCC[C@H](C)Oc2ccc(NC(=O)c3ccccc3)cc2C1=O
 : 1.7	i
N#C[C@H]1[C@H](c2ccccc2)[C@@H](CO)N1C(=O)C1CCCC1
 : -2.9	i
C[C@H]1CN([C@@H](C)CO)C(=O)c2ccccc2-c2ccccc2CO[C@H]1CN(C)Cc1ccc(Cl)c(Cl)c1
 : 8.2	i
Cc1ccccc1-c1cnc2c(c1)C(=O)N([C@@H](C)CO)C[C@H](C)[C@@H](CN(C)CC1CCOCC1)O2
 : -0.7	i
COCC(=O)N1CC2(CCN(Cc3ccccc3)CC2)c2c(n(C)c3cc(OC)ccc23)[C@H]1CO
 : -0.9	i
CO[C@@H]1CN(C)C(=O)c2cc(NC(=O)C3CC3)ccc2OC[C@@H](C)NC[C@@H]1C
 : -2.8	i
C[C@@H]1CN([C@H](C)CO)C(=O)c2cc(NC(=O)Nc3ccc(F)cc3)ccc2O[C@@H](C)CCCCO[C@H]1CN(C)Cc1ccc2c(c1)OCO2
 : 19	i
C[C@H](CO)N1C[C@H](C)[C@H](CN(C)Cc2cccnc2)Oc2cc(C#C[C@@H](C)O)ccc2S1(=O)=O
 : -1.8	i
O=C(C[C@H]1CC[C@H](NC(=O)c2ccc(F)cc2)[C@H](CO)O1)NCCc1ccncc1
 : -0.5	i
CCC(=O)Nc1ccc2c(c1)OC[C@@H](C)N(C(=O)COC)C[C@H](C)[C@H](OC)CN(C)C2=O
 : 1.4	i

The list goes on:
Each structure is followed by: AF4-AF9 inh	FGF22 binding
C[C@H]1CN([C@@H](C)CO)C(=O)Cc2cc(NC(=O)NC3CCCCC3)ccc2O[C@H]1CN(C)C
 : -5.3	i
O=C(Nc1ccccc1)N[C@H]1CC[C@@H](CCn2cc(C3(O)CCCC3)nn2)O[C@@H]1CO
 : 0.0	i
COCC(=O)N(C)C[C@H]1Oc2ncc(-c3ccccc3F)cc2C(=O)N([C@H](C)CO)C[C@@H]1C
 : -1.9	i
C[C@@H]1CN([C@H](C)CO)C(=O)c2cc(C3=CCCCC3)cnc2O[C@@H]1CN(C)C(=O)c1ccc(F)cc1
 : -5.4	i
O=C([C@H]1[C@H](CO)[C@H]2Cn3c(ccc(C4=CCCC4)c3=O)[C@H]2N1Cc1nccs1)N1CCOCC1
 : -41	i
C[C@@H]1CCCCO[C@@H](CN(C)C)[C@H](C)CN([C@H](C)CO)C(=O)c2cc(NS(C)(=O)=O)ccc2O1
 : -4.7	i
C[C@@H]1CN([C@H](C)CO)C(=O)CCCn2cc(nn2)CO[C@@H]1CN(C)Cc1ccc2c(c1)OCCN2C
 : 0.9	i
O=C(Nc1cc(F)ccc1F)N[C@@H]1CC[C@H](CCn2cc(C3CCCCC3)nn2)O[C@H]1CO
 : 1.5	i
C[C@@H]1CN([C@H](C)CO)C(=O)CCCn2cc(nn2)CO[C@@H]1CN(C)S(=O)(=O)c1ccc2ccccc2c1
 : -17	i
CCCNC(=O)COc1ccc(C=O)cc1
 : -1.4	i

Following part.
Each structure is followed by: AF4-AF9 inh	FGF22 binding
C[C@H](CO)N1C[C@H](C)[C@@H](CN(C)S(C)(=O)=O)Oc2ccc(NC(=O)Nc3ccc(C(F)(F)F)cc3)cc2CC1=O
 : -0.2	i
CNC[C@@H]1OCc2cn(nn2)CCCC(=O)N([C@@H](C)CO)C[C@H]1C
 : -1.9	i
O=S(=O)(N[C@H]1CC[C@@H](CCn2cc(C3(O)CCCC3)nn2)O[C@H]1CO)c1ccccc1
 : -1.4	i
C[C@H]1CN([C@@H](C)CO)S(=O)(=O)c2ccc(C#CC3CCCC3)cc2O[C@@H]1CN(C)C(=O)Cc1ccncc1
 : 6.8	i
C[C@@H]1CN([C@@H](C)CO)C(=O)c2cc(NC(=O)Nc3ccc(C(F)(F)F)cc3)ccc2O[C@@H](C)CCCCO[C@@H]1CN(C)S(=O)(=O)c1ccccc1
 : 0.8	i
C[C@@H]1CN([C@@H](C)CO)C(=O)c2cccc(NC(=O)C3CCOCC3)c2O[C@@H]1CN(C)Cc1ccccc1
 : -3.3	i
C[C@H](CO)N1C[C@H](C)[C@H](CN(C)S(=O)(=O)c2cccs2)OCCCC[C@H](C)Oc2ccc(NS(=O)(=O)c3cccs3)cc2C1=O
 : 4.2	i
CNC[C@@H]1Oc2ccc(NS(=O)(=O)c3cccs3)cc2CC(=O)N([C@@H](C)CO)C[C@@H]1C
 : -2.5	i
COc1ccc(C#Cc2ccc([C@@H]3[C@H](CO)N4CCCCN(C(=O)Nc5ccccc5F)C[C@@H]34)cc2)cc1
 : 4.6	i
C[C@@H]1CN([C@H](C)CO)C(=O)Cc2cc(NC(=O)Cc3ccccc3)ccc2O[C@@H]1CN(C)Cc1ccc(-c2ccccc2)cc1
 : -0.9	i

(continued)
Each structure is followed by: AF4-AF9 inh	FGF22 binding
CC(=O)N1CC[C@@H]2[C@@H](CO)N(C)c3ccc(-c4ccc(C#N)cc4)cc3[C@@H]21
 : -3.7	i
N#C[C@H]1[C@H](c2ccccc2)[C@@H](CO)N1S(=O)(=O)c1ccc(-c2ccccc2)cc1
 : -2.7	i
O=C([C@H]1[C@H](CO)[C@H]2Cn3c(ccc(C4=CCCC4)c3=O)[C@H]2N1CC1CC1)N1CCCCC1
 : -1.3	i
CO[C@H]1CN(C)C(=O)c2cc(NC(=O)Nc3c(C)noc3C)ccc2OC[C@H](C)N(CC2CC2)C[C@H]1C
 : -0.9	i
CN1C(=O)c2cc(NC(=O)c3cccc(Cl)c3)ccc2OC[C@H]2O[C@@H](CC(=O)NC3CCCCC3)CC[C@@H]21
 : -2.6	i
C[C@H](CO)N1C[C@H](C)[C@@H](CN(C)Cc2ccc3c(c2)OCO3)OCCCC[C@H](C)Oc2ccc(NC(=O)Nc3ccccc3)cc2C1=O
 : 2.9	i
C[C@@H]1CN([C@H](C)CO)C(=O)c2c(c3ccccc3n2C)-c2ccccc2CO[C@@H]1CN(C)C(=O)[C@H](C)c1ccccc1
 : -9.5	i
COc1ccc(S(=O)(=O)Nc2cccc3c2O[C@H](CN(C)C(=O)Nc2ccc(C(F)(F)F)cc2)[C@H](C)CN([C@@H](C)CO)C3=O)cc1
 : 5.5	i
Cc1ccc(S(=O)(=O)N2C[C@H](O)COC[C@H]3O[C@@H](CC(=O)NCc4ccc(Cl)c(Cl)c4)CC[C@@H]32)cc1
 : -0.5	i
C[C@@H]1CCCCO[C@@H](CN(C)Cc2ccc(C(F)(F)F)cc2)[C@H](C)CN([C@H](C)CO)C(=O)c2cc(NC(=O)CCC(F)(F)F)ccc2O1
 : 5.1	i

The results go on:
Each structure is followed by: AF4-AF9 inh	FGF22 binding
Cc1ccccc1-c1cnc2c(c1)C(=O)N([C@H](C)CO)C[C@@H](C)[C@@H](CN(C)Cc1ccccc1F)O2
 : -0.1	i
O=C(N[C@H]1CC[C@@H](CCNS(=O)(=O)c2ccc(F)cc2)O[C@H]1CO)C1CC1
 : -0.7	i
CO[C@H]1CN(C)C(=O)c2ccc(NC(=O)c3cnccn3)cc2OC[C@@H](C)N(C(C)=O)C[C@H]1C
 : -0.4	i
CCCNC(=O)Nc1ccc2c(c1)C(=O)N(C)[C@H]1CC[C@@H](CC(=O)NCc3ccccc3)O[C@@H]1CO2
 : -7.2	i
O=C(C[C@H]1C=C[C@H](NC(=O)Nc2cc(F)ccc2F)[C@@H](CO)O1)Nc1ccc(-c2ccccc2)cc1
 : -2.8	i
Cc1noc(C)c1S(=O)(=O)Nc1cccc2c1O[C@H](CN(C)Cc1ccncc1)[C@H](C)CN([C@H](C)CO)C2=O
 : -3.1	i
C[C@H]1CN([C@@H](C)CO)S(=O)(=O)c2ccc(-c3cncnc3)cc2O[C@H]1CN(C)Cc1ccccc1
 : -1.7	i
COc1ccc(S(=O)(=O)Nc2ccc3c(c2)C(=O)N([C@@H](C)CO)C[C@@H](C)[C@H](CN(C)C)OCCCC[C@H](C)O3)cc1
 : -2.8	i
Cc1ccc(S(=O)(=O)N(C)C[C@@H]2OCCCC[C@H](C)Oc3ccc(NC(=O)Nc4c(C)noc4C)cc3C(=O)N([C@H](C)CO)C[C@H]2C)cc1
 : 3.4	i
CN1C(=O)c2cc(NC(=O)Cc3cccs3)ccc2OC[C@H]2O[C@H](CC(=O)N[C@H]3CCN(Cc4ccccc4)C3)CC[C@@H]21
 : 4.2	i

(continued)
Each structure is followed by: AF4-AF9 inh	FGF22 binding
COCC(=O)NC[C@H]1[C@H](c2ccccc2)[C@H](CO)N1C(C)=O
 : -0.5	i
Cc1ccc(S(=O)(=O)N(C)C[C@H]2Oc3cc(-c4cccc(F)c4)ccc3S(=O)(=O)N([C@H](C)CO)C[C@@H]2C)cc1
 : 0.8	i
N#C[C@@H]1[C@@H](c2ccc(C#Cc3ccccc3F)cc2)[C@H](CO)N1C(=O)C1CCOCC1
 : -2.2	i
O=C(C[C@H]1CC[C@@H](NC(=O)c2ccccn2)[C@@H](CO)O1)NCc1cc(F)cc(F)c1
 : -2.1	i
C[C@H](CO)N1C[C@H](C)[C@@H](CN(C)C(=O)Nc2ccc(F)cc2)Oc2ncc(C#C[C@@H](C)O)cc2C1=O
 : -1.4	i
O=C(C[C@@H]1C[C@@H]2c3cc(NC(=O)Nc4ccccc4)ccc3O[C@@H]2[C@@H](CO)O1)NCCN1CCCCC1
 : 12	i
C[C@H](CO)N1C[C@H](C)[C@@H](CN(C)S(=O)(=O)c2cccs2)Oc2ccc(NS(=O)(=O)c3cccs3)cc2C1=O
 : -5.6	i
